Screens (PubChem)
T. gondii HeLa = Toxoplasma gondii ME49Luc growth in HeLa cells, luciferase, no IFN-y, primary screen (AID 1259421) | T. gondii ME49Luc in HeLa, luciferase, 72 h, no IFN-y; stronger effect = lower value; reference of the scale and settings of repeat entries not given here; many of its hits are not listed in these tables | 6,400 tested, 9.6% active | activity change, negative = inhibition, %;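 active = activity change below -70%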;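 note: about 20 µM from a 10 mM stock diluted 500-fold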
An asterisk follows results filed as active; & = joins results of further samples; ! = not confirmed by another sample. The list is partial, so the mix of outcomes need not match the whole.

Molecule | T. gondii HeLa
O=C(O)CC(O)(CC(=O)[O][Bi]1[O]C(=O)CC(O)(CC(=O)O)C(=O)[O]1)C(=O)O (stereo unspecified) | 23
O=C(O[C@@H]1Cc2c(O)cc(O)cc2O[C@@H]1c1ccc(O)c(O)c1)c1cc(O)c(O)c(O)c1 | 0
CC(=O)O[C@]1(C(C)=O)CC[C@H]2[C@@H]3C=C(C)C4=CC(=O)CC[C@@H]4[C@H]3CC[C@@]21C | 8
CCC1(c2ncc[nH]2)Cc2ccccc2O1 (stereo unspecified) | -1&15
Clc1ccc(C(Cn2ccnc2)OCc2c(Cl)cccc2Cl)c(Cl)c1 (stereo unspecified) | -53
Cn1cc(C2=C(c3cn(CCCSC(=N)N)c4ccccc34)C(=O)NC2=O)c2ccccc21 | -88*!
CC(=O)O[C@H]1C[C@@H](OC(C)=O)C(C)(C)C2C[C@@H](OC(C)=O)[C@]3(C)C(CC[C@@]4(C)[C@H](c5ccoc5)OC(=O)[C@H]5O[C@]543)[C@]21C (stereo partly specified) | 0
NCc1ccc(S(N)(=O)=O)cc1 | 2
COc1ccc2c(c1)OC1(O)COc3cc(OC)c(OC)cc3C1=C2 (stereo unspecified) | 11
O=c1c(O)c(-c2ccccc2)oc2ccccc12 | 23
CC[C@@H](C(=O)O)[C@@H]1O[C@@H]([C@@H](C)[C@H](O)[C@H](C)C(=O)[C@H](CC)[C@H]2O[C@]3(C=C[C@@H](O)[C@]4(CC[C@@](C)(C5CC[C@](O)(CC)[C@H](C)O5)O4)O3)[C@H](C)C[C@@H]2C)[C@@H](C)C[C@H]1C (stereo partly specified) | -82*
Cc1cc(C)c(S(=O)(=O)Nc2cccc(C(F)(F)F)c2)c(C)c1 | 25

Next part, overlapping the part above by six compounds.
Molecule | T. gondii HeLa
CC(=O)O[C@H]1C[C@@H](OC(C)=O)C(C)(C)C2C[C@@H](OC(C)=O)[C@]3(C)C(CC[C@@]4(C)[C@H](c5ccoc5)OC(=O)[C@H]5O[C@]543)[C@]21C (stereo partly specified) | 0
NCc1ccc(S(N)(=O)=O)cc1 | 2
COc1ccc2c(c1)OC1(O)COc3cc(OC)c(OC)cc3C1=C2 (stereo unspecified) | 11
O=c1c(O)c(-c2ccccc2)oc2ccccc12 | 23
CC[C@@H](C(=O)O)[C@@H]1O[C@@H]([C@@H](C)[C@H](O)[C@H](C)C(=O)[C@H](CC)[C@H]2O[C@]3(C=C[C@@H](O)[C@]4(CC[C@@](C)(C5CC[C@](O)(CC)[C@H](C)O5)O4)O3)[C@H](C)C[C@@H]2C)[C@@H](C)C[C@H]1C (stereo partly specified) | -82*
Cc1cc(C)c(S(=O)(=O)Nc2cccc(C(F)(F)F)c2)c(C)c1 | 25
NS(=O)(=O)C#Cc1ccccc1 | 5
CCCCCCCCCCCCCCCC(=O)C(F)(F)F | 5
Nc1ncnc2c1ncn2[C@@H]1O[C@H](COP(=O)(O)OP(=O)(O)OP(=O)(O)O)[C@@H](O)[C@H]1O | 12
O=C1CSC(=O)N1 | 21
O=C1c2ccccc2S(=O)(=O)N1CCCN1CCN(c2ncccn2)CC1 | 6
O=C1c2ccccc2C(Cc2ccncc2)(Cc2ccncc2)c2ccccc21 | 10&7
Fc1ccc(-c2cncc(CN3CCN(c4cccc5c4OCCO5)CC3)c2)cc1 | 20
COc1ccc(-c2oc3cc(OC)c(OC)c(OC)c3c(=O)c2OC)cc1OC | 7
Oc1cccc2[nH]ccc12 | 9
Cc1cc(=O)c(C(=O)N[C@@H](C(=O)N[C@@H]2C(=O)N3C(C(=O)O)=C(CSc4nnnn4C)CS[C@H]23)c2ccc(O)cc2)c[nH]1 | 9
O=c1ccc2c(OCCCCOc3ccccc3)c3ccoc3cc2o1 | 10
COc1ccc(/C=C/C(=O)c2ccc(O)cc2O)cc1 | 83
NC(=O)NC1NC(=O)NC1=O (stereo unspecified) | 8
O=C(O)c1cc2occc2[nH]1 | 12
C[N+](C)(C)C[C@H](O)CC(=O)O | 9
Cc1cnc(Nc2ccc(OCCN3CCCC3)cc2)nc1Nc1cccc(S(=O)(=O)NC(C)(C)C)c1 | -96*
O=c1c(-c2ccc(O)cc2)coc2c(C3O[C@H](CO)[C@@H](O)[C@H](O)[C@H]3O)c(O)ccc12 (stereo partly specified) | -6
C[C@H]1CC[C@@]2(OC1)O[C@H]1C[C@H]3[C@@H]4CC[C@@H]5C[C@@H](O)CC[C@]5(C)[C@H]4CC[C@]3(C)[C@H]1[C@@H]2C | 11
CNCCC=C1c2ccccc2CCc2ccccc21 | -24
CC(O)C1C(=O)N2C(C(=O)O)=C(C3CCCO3)SC12 (stereo unspecified) | 6
O=C(O)CCCc1c[nH]c2ccccc12 | 17
COC(=O)[C@H]1[C@H]2C[C@H]3c4[nH]c5ccccc5c4CCN3C[C@H]2CC[C@@H]1O | 5
Cc1cc(C)cc(C(=O)N(C)[C@H](Cc2ccc(-c3ccccc3)cc2)C(=O)N[C@@H](Cc2c[nH]c3ccccc23)C(=O)O)c1 | 13
c1ccc(CNc2nc(NCc3ccccc3)c3ccccc3n2)cc1 | -84*

Sorted by SMILES length (lowest first): some entries from above.
Molecule | T. gondii HeLa
NC(=O)NC1NC(=O)NC1=O (stereo unspecified) | 8
O=C(O)c1cc2occc2[nH]1 | 12
C[C@H]1CC[C@@]2(OC1)O[C@H]1C[C@H]3[C@@H]4CC[C@@H]5C[C@@H](O)CC[C@]5(C)[C@H]4CC[C@]3(C)[C@H]1[C@@H]2C | 11

Further compounds follow.
Molecule | T. gondii HeLa
COc1cc([C@@H]2[C@H]3CO[C@@]4(O)C(=O)[C@@H]2C=C([C@H]2Oc5cc(O)cc(O)c5C(=O)[C@@H]2O)[C@@H]34)ccc1O | 0
Nc1ncnc2c1ncn2[C@@H]1O[C@H](COP(=O)(O)OP(=O)(O)OP(=O)(O)OP(=O)(O)OC[C@H]2O[C@@H](n3cnc4c(N)ncnc43)C(O)C2O)C(O)C1O (stereo partly specified) | -3
O=C(O)/C=C1\CCCc2ccccc2C1O (stereo unspecified) | 5&14
O=C(O)c1cccnc1C(=O)O | 4
COC(=O)Nc1nc2ccc(C(=O)c3ccc(F)cc3)cc2[nH]1 | -65
COc1ccc(CCN(C)CCCN2CCc3cc(OC)c(OC)cc3CC2=O)cc1OC | 10
CCCc1c(-c2ccc(O)cc2)nn(-c2ccc(O)cc2)c1-c1ccc(O)cc1 | -3&-2
N#Cc1ccc(NCCNCC(=O)N2CCC[C@H]2C#N)nc1 | -1
CCCCC/C=C\C[C@@H](O)/C=C/C=C/C=C\[C@@H](O)CCCC(=O)O | 7
CO/N=C(/C(=O)NC1C(=O)N2C(C(=O)O)=C(CSc3nc(=O)c(=O)[nH]n3C)CSC12)c1csc(N)n1 (stereo unspecified) | -1
CCc1cc(Cl)c(OC)c(C(=O)NC[C@@H]2CCCN2CC)c1O | 7&15
O=C1Cc2cc(CCN3CCN(c4nsc5ccccc45)CC3)c(Cl)cc2N1 | -66
CC(=O)N[C@@H](CCC(N)=O)C(=O)O | 9
CC(C)(c1ccc(O)cc1)c1ccc(O)cc1 | 7
CCC(=O)OCC(=O)[C@@]1(OC(=O)CC)[C@H](C)CC2C3C([C@@H](O)C[C@@]21C)[C@@]1(C)C=CC(=O)C=C1C[C@H]3Cl (stereo partly specified) | 2
NCCCCCCNS(=O)(=O)c1ccc2c(Cl)cccc2c1 | 19
Nc1ccc2ncnc(NCCc3ccc(Oc4ccccc4)cc3)c2c1 | -23
CC(O)CN(CCN(CC(C)O)CC(C)O)CC(C)O (stereo unspecified) | 15
CC1(C)OC[C@@H](COC(=O)CCc2ccc(OC[C@@H](O)CNCCNC(=O)N3CCOCC3)cc2)O1 | 13
COC(=O)c1csc(C(=O)c2c[nH]c3ccccc23)n1 | 6
O=c1ccc2cc3ccoc3cc2o1 | -2
Clc1ccccc1C(c1ccccc1)(c1ccccc1)n1ccnc1 | -91*!
CC1=C(/C=C/C(C)=C/C=C/C(C)=C/CO)C(C)(C)CCC1 | 6&21
CNCCC=C1c2ccccc2C=Cc2ccccc21 | 26
CNC[C@H](O)[C@@H](O)[C@H](O)[C@H](O)CO | 3
CCCCNc1ncc(-c2ccc(CN3CCOCC3)cn2)c(NC2CCC(O)CC2)n1 (stereo unspecified) | -67
NCCCCCCCCCCNS(=O)(=O)c1cccc2c(Cl)cccc12 | 6&10
COc1nc(N)nc2nc[nH]c12 | 12
CCCCCCCCCCCCCCCCCCOC[C@H](COP(=O)(O)OCC[N+](C)(C)C)OC | 5
NC(=O)CNCCC(c1ccccc1)c1ccccc1 | 2&21
CC(C)c1cc(/C=C(\C#N)C(=O)NCCCc2ccccc2)cc(C(C)C)c1O | -46
CC1=C(C(=O)OCCN(Cc2ccccc2)c2ccccc2)C(c2cccc([N+](=O)[O-])c2)C(P2(=O)OCC(C)(C)CO2)=C(C)N1 (stereo unspecified) | 23
C[C@@H](CN1CCC(Cc2ccccc2)CC1)[C@@H](O)c1ccc(O)cc1 | -4&8
CC(C)N(CC[C@H](c1ccccc1)c1cc(CO)ccc1O)C(C)C | 6
C[C@@H]1C(SC2CN(C3=NCCS3)C2)=C(C(=O)OCOC(=O)C(C)(C)C)N2C(=O)[C@H]([C@@H](C)O)[C@H]12 | 3
Nc1nc(=O)n([C@H]2C[C@@H](O)[C@@H](CO)O2)cc1Cl | 7
Oc1ccccc1-c1nnco1 | 12
NS(=O)(=O)c1ccc(Cl)c(S(N)(=O)=O)c1 | 5
Cc1cc(C)c(S(=O)(=O)Nc2ccccc2C(F)(F)F)c(C)c1 | 25&10
Cc1cccc(C2CN(C)CCc3c2cc(O)c(O)c3Cl)c1 (stereo unspecified) | -3
CC(C)C(N)=O | 8
Clc1cccc(Cl)c1NC1=NCCN1 | 3&7
CCc1c2c(nc3ccc(O)cc13)-c1cc3c(c(=O)n1C2)COC(=O)[C@]3(O)CC | -93*
COc1ccc(/C=C/C(=O)c2cc(O)ccc2O)cc1 | 14
CNC(=O)c1ccc2cc([C@]3(O)CCn4cncc43)ccc2c1 | 10
CCCNS(=O)(=O)Nc1ncnc(OCCOc2ncc(Br)cn2)c1-c1ccc(Br)cc1 | -2
O=C(CCCCCCC(=O)Nc1cccnc1)NO | -92*
OC[C@H]1O[C@@H](n2cnc3c(N[C@H]4CCC[C@@H]4O)ncnc32)[C@H](O)[C@@H]1O | 4&10
CN1CCc2cc3c(cc2C(=O)Cc2ccc4c(c2C1)OCO4)OCO3 | 8
CC(=O)NCCC(=O)N[C@@H](Cc1cnc[nH]1)C(=O)O | 4
N#C/C(=C\c1ccc(O)c(O)c1)C(=O)Nc1ccccc1 | 2&10
Nc1cccc2c(=O)[nH][nH]c(=O)c12 | 7
CN(C)c1ccc(-c2nc3ncc(Cl)c(N4CCN(CC(=O)Nc5nccs5)CC4)c3[nH]2)cc1 | -32
O=C(O)CN1CCN(CC(=O)O)CCN(CC(=O)O)CCN(CC(=O)O)CC1 | 0
C=COCC(F)(F)F | 3
N=C(N)SCCc1cnc[nH]1 | 8
CCC(=O)c1c(O)cc(O)cc1O | 13
Cc1nc2n(c(=O)c1CCN1CCC(c3noc4cc(F)ccc34)CC1)CCCC2O (stereo unspecified) | 11&8
Cc1c(C(=O)NC2CCCCC2)sc2nc3ccc(N)cc3n12 | 19
CCC(=O)[C@@]1(C)[C@H](C)C[C@H]2[C@@H]3CCC4=CC(=O)C=C[C@]4(C)[C@H]3[C@@H](O)C[C@@]21C | 3

Following part
Molecule | T. gondii HeLa
c1ccc(-c2nc3ccccc3[nH]2)cc1 | 279
COc1ccc(CCN(C)CCCOc2ccc(S(=O)(=O)c3c(C(C)C)c4ccccc4n3C)cc2)cc1OC | -76*
Cc1nc(N(C)C(=O)Cc2ccc(-c3ccccn3)cc2)sc1S(N)(=O)=O | 7
CC(C)(C)NCC(O)CSc1nc(-c2ccc(C(N)=O)s2)cs1 (stereo unspecified) | 7
O=C1OC(OC(=O)c2cccnc2Nc2cccc(C(F)(F)F)c2)c2ccccc21 (stereo unspecified) | 8&24
COc1cc(C)c(/C=C/C(C)=C/C=C/C(C)=C/C(=O)O)c(C)c1C | 22
C[C@H](NC(=O)Cc1cc(F)cc(F)c1)C(=O)N[C@H](C(=O)OC(C)(C)C)c1ccccc1 | 23
O=C(c1cccc(Cl)c1F)N1CCN(Cc2cccc(Nc3nccs3)n2)CC1 | -46
COc1cc2c(cc1Cc1cccc(Cl)c1F)c(=O)c(C(=O)O)cn2[C@H](CO)C(C)C | -30
CC(CCC(=O)NCC(=O)O)C1CCC2C3CCC4CC(O)CCC4(C)C3CC(O)C12C (stereo unspecified) | -6
C[C@]12CCC3c4ccc(OS(=O)(=O)O)cc4CCC3C1CC[C@H]2O (stereo partly specified) | -8
CC(C)(C(=O)O)c1ccc(C(=O)CCCN2CCC(OC(c3ccccc3)c3ccccc3)CC2)cc1 | 7
CCN(CCO)CCCC(C)Nc1ccnc2cc(Cl)ccc12 (stereo unspecified) | 12&11
Nc1nc(F)nc2c1ncn2[C@@H]1O[C@H](CO)[C@@H](O)[C@@H]1O | -27
COc1ccc(Cc2cnc(N)nc2N)cc1OC | 10
COc1ccc(CCN2CCN(CCCc3ccccc3)CC2)cc1OC | -27
COC(=O)C1=C(C)NC(C)=C(C(=O)NCCCN2CCC(c3ccccc3)(c3ccccc3)CC2)C1c1ccc([N+](=O)[O-])cc1 (stereo unspecified) | -49
COC(=O)c1c(OC)cc2c(c1C)Oc1c(Cl)c(O)c(Cl)c(C)c1C(=O)O2 | 5
Cc1occc(=O)c1CC=O | 1
CCc1cc(C(N)=S)ccn1 | 4&19
C=CC(=O)Nc1cccc(OC)c1 | 7
Cc1cc2c(cc1S(N)(=O)=O)S(=O)(=O)CCC2 | -1&7
CNc1cc(OC)c(C(=O)N[C@@H]2CCN(Cc3ccccc3)[C@H]2C)cc1Cl | 15
CC1=C(C(=O)OC(C)C)C(c2cccc([N+](=O)[O-])c2)C(C(=O)OC2CN(C(c3ccccc3)c3ccccc3)C2)=C(N)N1 (stereo unspecified) | -36
O=C(O)Cc1cc2ccccc2nc1C(=O)O | 7
CC1(CN2CCC(n3c(=O)[nH]c4ccccc43)CC2)OCc2ccccc2-n2cccc21 (stereo unspecified) | 13&20
